BJeLR viability: BJeLR cell viability loss; BJeLR (HRASV12) viability, CellTiter-Glo ATP luminescence, 48 h; reference of the scale not given here; inhibition, % (no concentration beside the values); actives 0.17% (n = 300,000); AID 1554;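 active = replicate mean above 50%; inconclusive = above 50% but judged a plate artefact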;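 also: 50 nL library stock added to about 25 µL; numbers are from one replicate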
Autofluor counter: counter-screen for toxin protease inhibitors: compound fluorescence. compound autofluorescence counterscreen, microsphere flow cytometry; active compounds read high. fluorescence intensity (concentration not given with the values). actives 3.1% (n = 360,000);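 active = at least 3 SD above the mean of all compounds, about 16000 in these data; inconclusive = too few beads counted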;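 also: 100 nL of 1 mM stock went into each well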
PrP 5UTR inh: inhibition of PrP 5' UTR reporter expression; cell-based PrP 5' UTR mRNA reporter, plate reader; inhibition, % (test concentration not listed); actives 0.35% (n = 340,000); AID 488862;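 active = every replicate at 50% or more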;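 also: 0 = median of the neutral control wells; tested in H4 reporter cells; numbers are from one replicate; inactives centre near -14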
Mtb hypoxia rep: reduces hypoxia-regulated biosensor signal in M. tuberculosis. M. tuberculosis hypoxia-regulated fluorescent reporter, fluorescence. actives 0.1% (n = 300,000). fluorescence inhibition, % (concentration not given with the values);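 active = 35 to 45% if threefold the growth effect, above 45% if 1.5-fold the growth effect; inactive = the rest, general growth blockers included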;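 also: wells of about 50 µL received 100 nL stock; 0% = vehicle wells and 100% = reference inhibitor wells; whole bacteria with a GFP reporter of the hypoxia response; strong numbers were not always called active; many hits fall short of the cut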
Sa RN4220 lethal: kills Staphylococcus aureus RN4220. actives 0.33% (n = 330,000). inhibition, % (concentration not given with the values). AID 1259311. S. aureus RN4220 growth, OD600, 16 h;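 active = z-score of -3 or lower and OD600 up to 0.18 on both plates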;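 also: plate controls were untreated cells for no effect and reference antibiotic for full effect; stock transfer was 100 nL into about 80 µL; one replicate is shown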
Sa ugtP lethal: compounds lethal to S. aureus RN4220 ugtP deletion mutant; actives 0.54% (n = 330,000); OD600 growth, 16 h; some inactives read as strong as hits; growth inhibition, % (no concentration beside the values); AID 1259309;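 active = z-score under -3 and OD600 up to 0.15 on both plates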;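 also: plate controls were untreated wells for no effect and antibiotic for full effect; wells of about 80 µL received 100 nL stock; the first replicate is given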
Mtb hypoxia rep growth: second read-out of Mtb hypoxia rep, no call of its own (marks repeat the call); growth inhibition, %; measured here: M. tuberculosis growth (absorbance);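 0% = vehicle and 100% = reference antibiotic; read after six days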
An asterisk follows results filed as active; u = inconclusive; x = no result given. An unsorted share of the library. Share with any hit: about 4%.

SMILES	BJeLR viability	Autofluor counter	PrP 5UTR inh	Mtb hypoxia rep	Mtb hypoxia rep growth	Sa RN4220 lethal	Sa ugtP lethal
Cc1ccc(N2C(=O)C(c3c(C)[nH]n(-c4ccccc4)c3=O)(C(F)(F)F)C3=C2CC(C)(C)CC3=O)cc1 (configuration not stated)	-2	2423	-1	-3	0	-0.4	44
CC1(C)Cc2c(sc3nc(SCC(=O)N4CCOCC4)nc(N)c23)CO1	-4	2851	-17	8	8	-15	-7
CC(Oc1ccccc1)C(=O)NC1C(=O)N2C1SC(C)(C)C2C(=O)O (configuration not stated)	2	2221	-18	-4	-1	100*	100*
Cc1ccc(N2C(=O)/C(=C/c3cccnc3)SC2=S)cc1	5	1985	-19	-2	-2	1.5	13
CC1(c2ccc3c(c2)OCCCO3)NC(=O)N(CC(=O)NCCc2ccccc2)C1=O (configuration not stated)	x	3849	-15	-1	-6	2.8	7
COc1ccc(OCC(=O)Nc2ccc3c(c2)CCC3)cc1	x	4074	-8	-3	7	-1.7	-4
CC(=O)Oc1cccc(Nc2ncnc3ccccc23)c1	-3	3266	-17	6	4	2.5	6
C/C(=N\Nc1nc(N2CCOCC2)nc(N2CCOCC2)n1)c1cccs1	7	2635	-7	x	x	x	x
Oc1cc(O)c2c(c1)O[C@H](c1ccc(O)c(O)c1)[C@H](O)C2	-12	2808	-37	x	x	x	x
CCCc1nc2n[nH]c(N)c2c2c1COC(C)(C)C2	-7	21384*	-7	4	5	-1.8	5
O=[N+]([O-])c1ccc(C2CCCCC2=NOCc2ccc(F)cc2)c([N+](=O)[O-])c1 (configuration not stated)	x	x	x	17	8	2.6	-17
CC(C)c1onc(C(=O)Nc2cccc(O)c2)c1[N+](=O)[O-]	-4	3381	-22	5	9	4.7	10
CSc1nnc2n(C)c3c(c(=O)n12)C1(CCCC1)Cc1ccccc1-3	2	10656	-5	-9	0	-0.6	4
Cc1cc(C=NNC(=O)c2ccc(O)cc2)c(C)n1CC(C)C	x	x	x	-6	-19	-1.0	-2
CCOC(=O)c1ccc(NC(=S)N2CCN(c3ccccn3)CC2)cc1	-10	4095	-9	5	1	2.6	5
COc1cc2cc(C(c3nnnn3C3CCCCC3)N(C)C3CCCCC3)c(=O)[nH]c2cc1OC (configuration not stated)	0	22356*	0	1	1	32	1
C=C(C1=CCN(S(=O)(=O)C(C)(C)C)[C@H]1CCO)c1ccccc1	x	4072	-19	-4	6	5.2	-2
N=C1/C(=C\c2ccc(Br)o2)C(=O)N=C2SC(CC(=O)N3CCOCC3)=NN12	0	4537	8	5	3	-0.3	1
Cc1cc(C)n(-c2ccc(Cl)c(C(=O)OCC(N)=O)n2)n1	-10	11054	3	-3	9	-3.9	-7
CN(C(=O)C1CCOC1)c1nnc(-c2cnccn2)s1 (configuration not stated)	6	4854	-10	x	x	3.5	6
CCOc1ccc(Cc2c(Cl)nc(SC)nc2OC)cc1	-1	11312	-25	15	2	-3.1	83
NCCCNC(=O)c1ccc(/C=N/O)nc1	0	4305	-21	x	x	x	x
Cc1ccc(NC(=O)CCCN2C(=O)NC(C)(C)C2=O)cc1	x	3983	-29	12	3	4.0	4
Cc1ccc(S(=O)(=O)N(CC(O)CN(C)C)c2ccccc2)cc1 (configuration not stated)	3	4359	-10	x	x	-0.4	-3
Cn1c(SCC(=O)c2ccc3c(c2)Cc2ccccc2-3)nnc1-c1cccc(N)c1	-24	2403	-3	-11	3	-2.7	-25
Cc1ccc(NC(=O)CCc2c(C)nn(-c3ccc(N4CCOCC4)nn3)c2C)c(C)c1	-7	u	-5	8	8	2.3	0
c1ccc2oc(-c3[nH]ncc3CN3CCC(N4CCSCC4)CC3)cc2c1	2	2104	-25	-4	0	1.6	4
Cc1csc(NC(=O)CCc2ccc(S(=O)(=O)N3CCOCC3)cc2)n1	5	3923	-1	x	x	-5.4	-1
CCOC(=O)N1CCN(C(=S)Nc2cccc(C)c2)CC1	-4	23824*	-12	-7	-1	1.6	1
CC(=O)Nc1csc2ccccc12	4	4396	-14	9	9	3.0	2

Grouped by structure, the compounds so far containing an NH in an aromatic ring.
SMILES	BJeLR viability	Autofluor counter	PrP 5UTR inh	Mtb hypoxia rep	Mtb hypoxia rep growth	Sa RN4220 lethal	Sa ugtP lethal
Cc1ccc(N2C(=O)C(c3c(C)[nH]n(-c4ccccc4)c3=O)(C(F)(F)F)C3=C2CC(C)(C)CC3=O)cc1 (configuration not stated)	-2	2423	-1	-3	0	-0.4	44
CCCc1nc2n[nH]c(N)c2c2c1COC(C)(C)C2	-7	21384*	-7	4	5	-1.8	5
COc1cc2cc(C(c3nnnn3C3CCCCC3)N(C)C3CCCCC3)c(=O)[nH]c2cc1OC (configuration not stated)	0	22356*	0	1	1	32	1
c1ccc2oc(-c3[nH]ncc3CN3CCC(N4CCSCC4)CC3)cc2c1	2	2104	-25	-4	0	1.6	4

(continued)
SMILES	BJeLR viability	Autofluor counter	PrP 5UTR inh	Mtb hypoxia rep	Mtb hypoxia rep growth	Sa RN4220 lethal	Sa ugtP lethal
O=C(NCc1ccc(Cl)cc1Cl)c1ccccn1	x	24310*	-20	x	x	7.5	4
O=C(NCC1CCN(S(=O)(=O)c2ccccc2)CC1)Nc1ccc(F)cc1F	2	3622	-14	13	11	2.4	7
CC1(C)CC(=O)CC(C2(O)C(=O)N(Cc3ccccc3)c3ccccc32)O1 (configuration not stated)	7	5390	-4	15	9	5.6	12
CCCCOc1ccc(C(=O)NCC(=O)N(C)CC(=O)Nc2ccc(N3CCOCC3)cc2)cc1	10	6274	-21	11	4	2.1	3
CCOC(=O)c1ccc(NC(=O)Cn2nc(C)c3ccccc3c2=O)cc1	-8	3804	-5	-6	-4	1.4	4
COc1ccc(-c2c(C)n([O-])c(C)c(-c3ccccc3)[n+]2=O)cc1OC	2	21301*	7	1	-3	8.5	16
CCOC(=O)c1c(NC(=O)C2CCCN2S(=O)(=O)c2cccc3nsnc23)sc(C)c1C (configuration not stated)	x	3581	-12	-2	-6	-4.9	-6
COc1ccccc1NS(=O)(=O)CC12CCC(CC1=O)C2(C)C (configuration not stated)	13	7378	-17	4	9	5.9	3
O=C(CN1CCN(Cc2ccc(Cl)cc2)C1=O)NCc1cccs1	9	4585	x	2	4	3.0	0
O=C(C1CCCN(Cc2ccccc2)C1)N1CCc2ccccc2C1 (configuration not stated)	5	11944	-11	-28	-5	-4.3	-10
Cc1cccc(NS(=O)(=O)c2ccc(NS(=O)(=O)c3cccs3)cc2)c1	-4	3109	-22	15	-2	0.7	7
CCCCc1ccc(NC(=O)Cn2c(=O)c(N3CCCCC3)c(N)n(C)c2=O)cc1	x	3493	-14	2	6	-7.1	9
CC12CN3CCN(CC(C3)C1=NNC(=O)Nc1cccc(Cl)c1)C2	x	x	x	4	5	6.4	6
COc1ccc(/C=N/NC(=O)CC(=O)NCc2cccnc2)cc1	6	3374	-8	x	x	x	x
Cc1ccc(OC(C)C)c(CN(CCO)CCO)c1	-1	4209	-12	x	x	-2.8	5
CCc1ccc(OCC(=O)NC(NC(=S)Nc2ccccc2)C(Cl)(Cl)Cl)cc1 (configuration not stated)	-6	2598	-14	5	5	-12	-35
O=C(CCc1ccccc1)NNC(=O)c1ccccc1Cl	-6	3872	-19	5	-5	2.4	7
CC(=O)O[C@]1(C(C)=O)CC[C@H]2[C@@H]3C=CC4=CC(=O)C=C[C@]4(C)[C@H]3CC[C@@]21C	-2	3147	2	2	-1	3.8	2
COC(=O)c1ccc(-c2noc(CN(Cc3ccccn3)CC3CCCO3)n2)cc1 (configuration not stated)	0	2107	-33	-5	-1	-3.1	-11
Cc1noc(C)c1COC(=O)c1cc(C)n(-c2ccccc2)c1C	-22	9656	-59	12	11	4.6	48
CN(C(=O)c1cccc(NC(=O)Cc2ccc(NC(=O)C3CCCN(C(=O)C4CC4)C3)cc2)c1)C1CC1 (configuration not stated)	x	3014	-42	2	-1	1.4	4
O=c1c2ccccc2nc(SCC2CCCCO2)n1-c1ccccc1 (configuration not stated)	8	10141	-11	1	1	34	2
O=C1c2ccccc2C(=O)N1CN(C(=O)COc1ccccc1)c1ccc(F)cc1	-4	7690	-44	3	2	4.8	-5
CC(C)CCSc1ncnc2c1oc1nc3c(cc12)COC(C)(C)C3	-14	23888*	7	-5	4	3.7	4
COc1cc2ccccc2cc1C(=O)Nc1ccc(N2CCOCC2)cc1	7	5445	-12	-3	2	3.8	0
CCCCOC1CC(c2ccc(OCc3ccc(OC)cc3)c(OC)c2)N(C)O1 (configuration not stated)	1	5044	-26	5	4	6.1	9
c1ccc(Cn2nnnc2CN2CCN(c3ncccn3)CC2)cc1	3	u	-15	x	x	2.4	2
Cc1ccc2c(n1)sc1c(-c3ccccc3)c(C#N)c(N)nc12	-1	4249	-48	3	2	-1.9	13
COc1ccc(NC(=O)C2C3CCC(C3)C2C(=O)O)cc1OC (configuration not stated)	-2	4399	-4	x	x	3.0	3
OCC(O)CN1CCCC1 (configuration not stated)	3	6617	x	5	3	2.8	13
CCN1CCN(C(=O)COc2cc(=O)n(CC)c3ccccc23)CC1	-6	4196	-16	2	5	4.0	8
CN(C)C(CNC(=O)c1cccc(C#N)c1)c1ccco1 (configuration not stated)	6	3355	-22	2	-1	6.9	5
Fc1ccc(F)c(NC2=NCCCCC2)c1	2	5936	-15	x	x	x	x
COc1ccc(NC(=O)c2ccccc2NC(=O)C2CCCO2)cc1 (configuration not stated)	-11	4683	-29	-2	0	0.5	5
Cc1ccc(-c2cc(C(=O)N/N=C/c3ccc(F)cc3)n[nH]2)o1	-17	6298	-2	x	x	x	x
COc1ccc(Br)cc1/C=N/Nc1cccc(C(=O)O)c1	-5	2514	-35	x	x	x	x
O=[N+]([O-])C(/C=C(/Cl)[N+](=O)[O-])=C(N1CCCCC1)N1CCCCC1	-12	u	-46	13	6	19	9
O=C(Cc1cccs1)N1CCN(S(=O)(=O)c2ccccc2)CC1	0	7243	-28	11	-1	0.0	2
Cc1cccc(C)c1NC(=S)NN=Cc1ccccc1C(=O)O	x	x	x	2	5	2.2	3
NS(=O)(=O)c1ccc(CNC(=O)CCCSc2ccccc2)cc1	-1	4315	-18	9	-6	6.8	7
COc1ccc(CC(=O)OCCN(C)C)cc1	-1	4763	-16	x	x	2.6	4
O=C(Cc1ccsc1)NNC(=O)c1ccccc1Cl	3	u	-24	-3	-5	5.6	11
COc1cc(CC(=O)Nc2cc(S(C)(=O)=O)ccc2Cl)cc(OC)c1OC	1	4455	-21	3	11	1.1	2
Cc1cc(-c2ccccc2)n(-c2ccc(C(=O)N3CCN(c4ncccn4)CC3)cc2)n1	2	5940	7	2	10	2.5	-2
CN(Cc1ccccc1)CC(O)COc1ccc(CNCCCOc2cccnc2)cc1 (configuration not stated)	-6	u	-21	-4	-15	1.9	9
COC(=O)c1c(NC(=O)CN2C(=O)C(=O)N(CC(C)C)C2=O)sc2c1CCCCC2	0	2141	-13	8	12	11	4
COc1ccc(CCN(C)C(=O)CSc2nc3ncc(Cl)cc3[nH]2)cc1OC	2	4583	-7	19	1	1.2	-1
Cc1cccc(OCC(=O)NCCNC(=O)c2cccnc2)c1	0	5682	-11	1	4	3.5	2
CC[C@]12c3[nH]c4ccc(OC)cc4c3CCN1C(=O)C(CC(=O)NCc1ccco1)C[C@@H]2C(=O)N1CCN(C(=O)C2CC2)CC1 (some centres not stated)	x	4157	-10	-8	-1	3.0	3
COCc1[nH]nc2c1C(c1cc(OC)c(O)c(OC)c1)C(C#N)=C(N)O2 (configuration not stated)	-10	4414	-3	0	11	4.5	-1
Remaining list, next part:
SMILES	BJeLR viability	Autofluor counter	PrP 5UTR inh	Mtb hypoxia rep	Mtb hypoxia rep growth	Sa RN4220 lethal	Sa ugtP lethal
CC1CCCC(NS(=O)(=O)c2ccc3c(c2)OCCO3)C1C (configuration not stated)	9	3895	-8	x	x	0.6	-1
C=CCC(=O)N1CCC(n2nccc2NC(=O)CCOc2ccccc2)CC1	-5	u	-13	12	5	-0.7	10
COc1ccc(NC(=O)CCNC(=O)Cn2ccc3ccccc3c2=O)cc1Cl	7	5427	-13	7	3	0.5	3
Cc1ccc(C(=O)Nc2ccccc2Oc2ccccc2)cc1[N+](=O)[O-]	-3	4468	-2	18	8	4.3	2

Screens as filed in PubChem.
